High-throughput results as filed in PubChem.
RecA splice inh: blocks M. tuberculosis RecA intein splicing | P9WHJ3 | cell-free RecA intein splicing, fluorescence | inhibition, %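 (about 9 µM by stock and volumes)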 | 290,000 compounds, 0.75% hits; in the data active = inhibition above about 30%; inconclusive = no clear call, values can overlap the other calls;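 note: 0% = vehicle wells and 100% = reference inhibitor control wells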
Target sequence (P9WHJ3 whole entry, looked up, canonical isoform): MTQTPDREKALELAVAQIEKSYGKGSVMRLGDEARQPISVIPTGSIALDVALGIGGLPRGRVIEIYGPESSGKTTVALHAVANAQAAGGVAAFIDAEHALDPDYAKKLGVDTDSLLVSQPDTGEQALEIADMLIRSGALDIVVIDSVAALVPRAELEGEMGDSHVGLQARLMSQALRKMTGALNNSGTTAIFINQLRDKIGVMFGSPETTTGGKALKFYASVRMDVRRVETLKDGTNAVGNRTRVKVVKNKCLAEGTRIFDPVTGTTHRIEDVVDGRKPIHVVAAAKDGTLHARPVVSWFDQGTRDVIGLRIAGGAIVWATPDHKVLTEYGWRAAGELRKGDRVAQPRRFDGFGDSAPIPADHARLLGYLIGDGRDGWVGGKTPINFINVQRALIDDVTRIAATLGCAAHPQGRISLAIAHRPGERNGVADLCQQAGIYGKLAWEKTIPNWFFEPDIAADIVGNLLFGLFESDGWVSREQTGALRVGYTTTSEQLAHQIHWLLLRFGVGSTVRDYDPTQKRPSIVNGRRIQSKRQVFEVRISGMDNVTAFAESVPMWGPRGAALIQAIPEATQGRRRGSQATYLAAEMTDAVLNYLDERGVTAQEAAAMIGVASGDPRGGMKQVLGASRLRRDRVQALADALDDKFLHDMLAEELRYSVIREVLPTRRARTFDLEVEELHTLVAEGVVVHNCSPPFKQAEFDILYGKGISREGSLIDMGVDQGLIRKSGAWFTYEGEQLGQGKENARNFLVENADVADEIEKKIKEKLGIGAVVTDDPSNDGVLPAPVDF
Mtb bLac sens: beta-lactam sensitization of Mtb H37Rv; 330,000 compounds, 0.27% hits; inhibition, % at 25 µM; M. tuberculosis H37Rv growth with meropenem, percent inhibition; hits of this screen are not shown here;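 active = about 74% or more and at least 40 points above the plate without the antibiotic, then above 30% in a dose series; inconclusive = first-round hits that could not be retested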;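 note: growth measured after seven days incubation then overnight dye step; 0% = bacteria only wells and 100% = bacteria with antibiotic; twin plates without the antibiotic show which effects depend on it; some results filed as inactive read as strong as hits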
Arbovirus anti: arbovirus infection inhibition; 200,000 compounds, 0.37% hits; arbovirus infection cell-based antiviral screen; inhibition, % at 10 µM;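 active = inhibition from about 30%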;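 note: bluetongue infection of BSR cells; cell survival read as ATP light after 72 h; 0% = infected wells without compound and 100% = uninfected wells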
YopH PTP inh: blocks Yersinia enterocolitica YopH tyrosine phosphatase; inhibition, %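 (about 10 µM by stock and volumes)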; 140,000 compounds, 0.16% hits; fluorescence Ex485/Em525;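 active = inhibition of 50% or more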;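 note: controls were vehicle for no effect and minimum signal wells for full effect; inactives centre near -20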
Mtb growth: M. tuberculosis H37Rv growth inhibitors, H37Rv strain (AID 1626) | M. tuberculosis H37Rv growth inhibition; higher % means a stronger effect | one-dose inhibition, % at 10 µM; IC50 in µM for titrated hits | 220,000 compounds, 0.95% hits;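 active = confirmed in a dose series; inconclusive = inhibition above 80% but not taken into the dose series; inactive = below 80% or under 30% at every dose of the series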;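 note: bacteria incubated seven days before Alamar blue readout; 0% = bacteria only wells and 100% = bacteria with antibiotic wells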
Arbovirus anti repeat: also measured in Arbovirus anti; calls as there; inhibition, %; measured here: 10K subset replicate screen; many hits read low in the repeat;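 first of two repeat runs on a subset; 0% = infected and 100% = uninfected wells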
* hit, by the source's call; ? = inconclusive; · = no result given. Not all compounds are listed; the hit share may differ from the screen's.

SMILES	RecA splice inh	Mtb bLac sens	Arbovirus anti	YopH PTP inh	Mtb growth	others
Cc1c(-c2cc(Br)ccc2O)nc2cc3c(cc2c1C)OCO3	-8.4	0	·	·	·
Cc1noc(C)c1COC(=O)C1CC(O)CN1S(=O)(=O)c1ccc(Cl)cc1 (centres undefined)	0.0	2	1	-35	-6%
CC(C)c1cc(C(=O)N2CCCC(N3CCN(c4ccc(F)cc4)CC3)C2)no1 (centres undefined)	1.6	5	·	·	·
CN1CCN(C(=O)/C(=C/c2ccc(F)cc2)NC(=O)c2ccccc2)CC1	-0.7	-1	·	·	·
COc1ccc(N2CC(C(=O)N[C@@H](CC(C)C)C(=O)NC3CCCCC3)CC2=O)cc1 (some centres undefined)	-0.6	-14	·	·	·
CCCn1nc(NC(=O)C2CCCO2)c2cc3cccc(C)c3nc21 (centres undefined)	-43	1	·	·	4%
COc1ccc(CC(C)NCCC(c2ccccc2)c2ccccc2)cc1 (centres undefined)	6.0	98	·	·	·
O=C(Nc1ccc(Cl)cc1N1CCOCC1)C1CCCO1 (centres undefined)	0.6	-9	·	·	·
CCCCOC(=O)CCn1c(=S)oc2ccccc21	-1.3	23	-6	-35	-11%
O=C(Nn1cnnc1)c1ccc(Cl)c([N+](=O)[O-])c1	0.3	-4	·	·	-10%
O=C(CSc1ccccc1)N1CCN(C(=O)c2ccco2)CC1	-4.7	-9	-4	·	4%
O=C(Nc1nc(-c2ccc(S(=O)(=O)N3CCCCCC3)cc2)cs1)c1cccs1	-0.4	-1	-6	32	8%
O=C(CN1CCN(c2ccccn2)CC1)NC1CCCCC1	-0.1	-19	-5	-2	-12%
CCOC(=O)C1NC(=O)CC1c1ccccc1 (centres undefined)	-0.1	-5	5	-77	1%
CN1CCN(CCCNC(=O)c2ccc(/C=C3\Sc4ccccc4N(Cc4ccc(F)cc4)C3=O)cc2)CC1	9.7	·	-31	·	6.4µM*
COc1ccc(CN2CCN(C3CCOCC3)CC2CCO)c(C)c1C (centres undefined)	-2.0	-6	3	·	2%
O=C1[C@H]2[C@@H](c3ccc(Cl)cc3)N3C(=O)N(c4cccc(Cl)c4)C(=O)[C@@]3(Cc3ccc(Cl)cc3)[C@H]2C(=O)N1C1CCCCC1	4.9	-5	·	·	·
Cc1ccc(CSCC(=O)N(C)CC(=O)Nc2ccc(C)cc2)cc1	5.1	-15	·	·	·
COc1ccccc1N(CCC#N)C(=O)CSc1ccc2c(c1)OCCO2	-0.1	10	1	-9	-3%
CCn1c(COc2ccc(C)cc2)nc2ccccc21	6.3	-7	-15	·	2%
O=C(Nc1ccccc1)NN1CC(=O)N(c2ccc(Cl)cc2)CC1=O	2.2	4	·	·	-6%
Cc1ccc(S(=O)(=O)c2nc(-c3ccccc3F)oc2N2CC(C)OC(C)C2)cc1 (centres undefined)	8.7	?	·	·	·
O=C(NCC1CCC(C(=O)O)CC1)c1cccnc1 (centres undefined)	-0.2	-13	1	-24	1%
O=C(O)CNC(=O)c1ccc(NC(=O)/C(=C/c2ccccc2)NC(=O)c2ccccc2)cc1	-2.6	-1	·	·	·

By substructure: the compounds so far containing four or more nitrogen atoms
SMILES	RecA splice inh	Mtb bLac sens	Arbovirus anti	YopH PTP inh	Mtb growth	others
CC(C)c1cc(C(=O)N2CCCC(N3CCN(c4ccc(F)cc4)CC3)C2)no1 (centres undefined)	1.6	5	·	·	·
CCCn1nc(NC(=O)C2CCCO2)c2cc3cccc(C)c3nc21 (centres undefined)	-43	1	·	·	4%
O=C(Nn1cnnc1)c1ccc(Cl)c([N+](=O)[O-])c1	0.3	-4	·	·	-10%
O=C(CN1CCN(c2ccccn2)CC1)NC1CCCCC1	-0.1	-19	-5	-2	-12%
CN1CCN(CCCNC(=O)c2ccc(/C=C3\Sc4ccccc4N(Cc4ccc(F)cc4)C3=O)cc2)CC1	9.7	·	-31	·	6.4µM*
O=C(Nc1ccccc1)NN1CC(=O)N(c2ccc(Cl)cc2)CC1=O	2.2	4	·	·	-6%

Retrieved by compound from above (4):
SMILES	RecA splice inh	Mtb bLac sens	Arbovirus anti	YopH PTP inh	Mtb growth	others
O=C(NCC1CCC(C(=O)O)CC1)c1cccnc1 (centres undefined)	-0.2	-13	1	-24	1%
Cc1ccc(S(=O)(=O)c2nc(-c3ccccc3F)oc2N2CC(C)OC(C)C2)cc1 (centres undefined)	8.7	?	·	·	·
CCOC(=O)C1NC(=O)CC1c1ccccc1 (centres undefined)	-0.1	-5	5	-77	1%
COc1ccc(CN2CCN(C3CCOCC3)CC2CCO)c(C)c1C (centres undefined)	-2.0	-6	3	·	2%

Next records
SMILES	RecA splice inh	Mtb bLac sens	Arbovirus anti	YopH PTP inh	Mtb growth	others
CC(C)C[C@H](NC(=O)[C@@H](O)[C@H](N)Cc1ccccc1)C(=O)O	2.3	0	·	·	-4%
Cc1ccc(-c2nnc(NC(=O)c3c(F)cccc3Cl)s2)cc1	-7.3	6	·	·	·
CCc1ccc2oc(-c3cccc(N)c3)nc2c1	-3.3	98	-1	3	5%
CCOC(=O)/C=c1\s/c(=C(\C#N)C(=O)OCC)n(-c2ccccc2)c1=O	7.6	-1	5	-32	-8%
O=C(NNC(=O)c1ccccc1Br)c1cccc(Cl)c1	2.1	-9	10	-36	7%
CCOC(=O)c1cccc(S(=O)(=O)N(CCO)Cc2cc3cc(OC)c(OC)cc3[nH]c2=O)c1	1.5	-2	1	-38	-3%
COc1cc(/C=N/NC(=O)c2cccnc2)ccc1OC(=O)c1ccc2c(c1)OCO2	1.1	-4	6	-28	-1%
Cc1ccnc(NC(=O)Nc2ccc(F)cc2)c1	0.0	5	10	-17	-2%
COc1ccc(C(=O)Nc2ccc(-c3ccc(NC(=O)c4ccc(OC)cc4)c(OC)c3)cc2OC)cc1	-1.6	44	-28	-32	11%
O=C(Cn1nnc(-c2ccc(CN3CCOCC3)cc2)n1)N(c1ccccc1)c1ccccc1	6.0	5	8	·	3%
COc1ccc([N+](=O)[O-])cc1NC(=O)Cc1noc2ccccc12	1.5	-3	-9	·	-11%
CCOc1ccccc1C1C(C(N)=O)=C(C)Nc2nc(-c3ccccc3Cl)nn21 (centres undefined)	2.2	-2	-5	-2	2%
O=C(Nc1ccc(N2CCN(Cc3ccccc3)CC2)cc1)c1cccnc1	0.9	-15	6	-27	1%
CCN1C(=O)C2C(C1=O)N1C(c3ccccc3)C3C(=O)N(CC)C(=O)C3N1C2c1ccccc1 (centres undefined)	0.5	7	7	-11	-3%
CN=C1CC(C)(C)CC(=O)/C1=C(/O)CCC(=O)NC	0.5	-2	2	5	-5%
COc1ccc(C2=C(C)C(N3CCN(C(=O)c4ccco4)CC3)=NS2(=O)=O)cc1	-1.6	5	·	·	·
CC1=NN(c2ccccc2)C(=O)/C1=C/C=C/c1ccccc1	0.5	95	-36	-33	26%
O=C1NCCCCC1NC1CC(=O)N(c2ccccc2)C1=O (centres undefined)	·	-8	11	-2	-1%
CCOC(=O)c1sc(NC(=O)Nc2ccccc2)cc1C	7.7	10	-20	-30	-4%
CCOC(=O)C1=C(C)NC(=O)NC1c1ccc(-c2ccc(Cl)cc2)o1 (centres undefined)	3.6	-8	0	·	77%
O=C(Nc1ccc(F)cc1)Nc1cccc(Br)c1	3.6	-2	·	·	·
Cc1ccccc1OCc1nnc(SCC(=O)Nc2ccc3c(c2)oc2ccccc23)n1C	0.8	84	-7	-6	76%
COCc1c(C(=O)N/N=C(\C)c2ccc(Cl)s2)nnn1-c1nonc1N	-1.7	-1	·	·	·
Cc1cc(C)c(C#N)c(N)n1	-8.2	-2	0	·	-5%
Cn1c(=O)c(=O)n(C)c2cc(S(=O)(=O)N3CCCC3C(=O)Nc3ccccc3F)ccc21 (centres undefined)	2.3	?	·	·	·
CCn1c2ccccc2c2cc(NC(=O)c3cccc([N+](=O)[O-])c3)ccc21	0.6	-1	·	·	·
CSc1ccc(CN2CCN(CCC(C)C)C(CCO)C2)cc1 (centres undefined)	1.7	-3	-10	·	5%
COc1ccc2nc(NC(=O)CCN3C(=S)NC(C)(C)CC3C)sc2c1 (centres undefined)	-1.1	3	5	-31	-4%
CCOc1ccc(-c2noc(CCC(=O)NCCc3ccccc3)n2)cc1OC	-0.9	-6	·	·	·
CCC(=O)Nc1nc(-c2ccc3c(c2)CC(C)N3S(C)(=O)=O)cs1 (centres undefined)	-0.2	-4	5	·	-1%
c1cc(CNc2ccc(N3CCOCC3)cc2)ccn1	-7.4	-6	-8	-1	-1%
COc1ccccc1CC(=O)Nc1cccc2ccccc12	1.1	-13	·	·	·
CN1CCN(c2nc(C(N)=O)cc(-c3ccccc3)n2)CC1	-6.7	1	-2	-25	-9%
COc1cc(/C=C(\NC(=O)c2ccccc2)C(=O)Nc2cccc(O)c2)c([N+](=O)[O-])cc1OC	-4.9	-19	6	-30	0%
COc1ccc(CNC(=O)C(=O)NC2CC(C)(C)NC(C)(C)C2)cc1	-0.5	-1	1	·	3%
CCc1ccc(OCC(=O)Oc2ccc([N+](=O)[O-])cc2)cc1	-0.6	9	·	·	·
Cc1sc(N/N=C/c2ccco2)nc1-c1ccccc1	3.7	0	7	-6	14%
CCCN(CCC)c1ccc(/C=C/c2ccc3cc(OCC)ccc3n2)cc1	-23	8	·	·	9%
Cc1ccc(C)c2c(N)c3c(nc12)CCCCC3 (tested in a mixture with another compound)	1.0	-1	11	·	-3%
COc1ccc(C(=O)NCCS(=O)(=O)N(C)C2CCCCC2)cc1	0.3	-12	·	·	·
CCOC(=O)C1=NOC(COc2ccccc2C=O)C1 (centres undefined)	5.4	1	0	·	2%
Cc1cccc(-n2c(=O)c3c(C)c(C)sc3n(CC(N)=O)c2=O)c1	1.2	-6	0	·	-4%
c1ccc(C2CN3CCC2CC3)cc1 (centres undefined)	-0.2	-2	·	·	·
COc1ccccc1C1=NOC(C)(c2nnc(Cc3ccccc3)o2)C1 (centres undefined)	-0.3	-1	·	·	·
O=c1cc(O)sc2ccccc12	-1.6	0	6	-3	3%	Arbovirus anti repeat=3
COc1ccccc1C(=O)N/C(=C/c1ccc2c(c1)OCO2)C(=O)Nc1cccc(C(=O)O)c1	9.7	5	·	·	·
N#CCSc1nc2ccccc2c(=O)n1CCCC(=O)NCC1CCCO1 (centres undefined)	1.2	-11	1	·	-2%
Cc1ccc(NC(=O)CSc2cccc3cccnc23)c(C)c1	-0.5	1	·	·	·
CCOC(=O)Cn1nnnc1CN(Cc1cccs1)Cc1cc2cc(C)cc(C)c2[nH]c1=O	11	34	-3	-23	·
O=C(Nc1nnc(-c2cccnc2)o1)c1cccc([N+](=O)[O-])c1	-0.5	91	6	·	75%
CC(C)=C(NC(=O)c1ccccc1)C(N)=O	-1.2	-6	·	·	-7%
COC(=O)CCCC(=O)NC1CC(C)(C)Cc2c1cnn2-c1ccc(C)cc1 (centres undefined)	2.0	-8	·	·	·
CC(OC(=O)c1ccc(S(=O)(=O)NCc2ccco2)cc1)C(=O)Nc1ncc(Cl)cc1Cl (centres undefined)	-1.1	2	-1	-30	12%
Cc1nn(Cc2ccc(C(=O)n3cccn3)o2)c(C)c1Br	6.6	-3	-3	-20	-7%
O=c1nc(-c2ccccc2)cc(-c2ccccc2)[nH]1	2.7	7	9	-22	-5%
Cc1nc(SCC(=O)NCc2ccco2)c2c3c(sc2n1)CCCC3	2.4	93	-27	-35	-9%
COc1cccc(CNC(=O)CN2C(=O)COc3ccc(S(=O)(=O)N4CCCCCC4)cc32)c1	0.3	-12	·	·	·
CCOc1cc(C(=O)NC(C)C2CCCO2)cc(OCC)c1OCC (centres undefined)	-2.6	-6	2	·	-3%
Cc1nn(-c2ccccc2)c(Cl)c1C(=O)OC(C)C(=O)Nc1ccc2c(c1)OCO2 (centres undefined)	1.7	-1	-3	-1	6%
Cc1cc(C)n(Cc2ccc(C(=O)Nc3ccc(Br)cc3C)o2)n1	-0.3	1	-6	-23	2%

Later entries:
SMILES	RecA splice inh	Mtb bLac sens	Arbovirus anti	YopH PTP inh	Mtb growth	others
COc1ccc(NC(c2ccccc2F)P(=O)(Oc2ccccc2)Oc2ccccc2)cc1 (centres undefined)	3.3	36	2	-38	?
CCC(=O)c1c(OCc2ccccc2)ccc2c(C)cc(=O)oc12	-3.6	-5	-7	·	-2%
Cc1ccc(CCN2CC(C(=O)NC3CCCC3)CC2=O)cc1 (centres undefined)	-1.1	-6	4	-24	-3%
O=C(O)c1ccccc1OCCN1CCCC1=O	-0.2	-5	·	·	·
O=C(Cc1ccc(F)cc1)Nc1nc(-c2ccc(F)c(F)c2)cs1	13	11	·	·	·
CC1=C(C#N)C(c2ccc(O)cc2)C(C#N)=C(C)N1	-5.0	1	·	·	-4%
CCOC(=O)CC1=NN(c2ccccc2)C(=O)C1	66*	4	-2	·	4%
CC(CCc1ccco1)NC(=O)Cn1nc(Cc2ccncc2)c2ccccc2c1=O (centres undefined)	-4.8	-7	-3	-34	-4%	Arbovirus anti repeat=-1
COc1ccc(OCCCCc2c(C)n[nH]c2C)cc1	2.9	58	·	·	·
